# Assay outcomes from PubChem BioAssay.
# Menin MLL FP FL = qHTS Assay for Inhibitors Targeting the Menin-MLL Interaction in MLL Related Leukemias: Competition With Fluorescein Labeled MLL-derived Peptide; Fluorescence polarization, fluorescein-MLL peptide displacement from menin; FP activity change, % at 61.4 µM; 290,000 tested, under 10 active; inconclusive = falling polarisation curve, or a change in total fluorescence; inactive = total fluorescence flat and polarisation flat or rising; no compound was filed as active; the % refers to the polarisation; negative = inhibition;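 note: % of control where 0% means no effect; inhibitors lower the polarisation; unlabelled MLL peptide was the positive control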
# gsp antagonist = qHTS for Antagonists of gsp, the Etiologic Mutation Responsible for Fibrous Dysplasia/McCune-Albright Syndrome: qHTS. gsp-mutant cells, cAMP HTRF, 30 min; control for the full effect not named in the record. Potency, µM (titrated, usually from 76.9 µM), without a hit: at the highest dose activity change, negative = inhibition, usual class: inhibitors. hit rate 0.4% among 340,000. AID 624288, 2012; active = falling curve of any shape with a large fitted effect; inconclusive = falling curve, mostly with a smaller effect; inactive = flat or rising curve; cell line not stated here;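 note: intracellular cAMP measured with PDE inhibitor Ro 20-1724 present during compound exposure; potency is the fitted concentration of half-maximal effect; % is set by controls: 0 for no effect and ±100 for the full control effect; nearly all actives have a fitted effect of over 65% in size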
#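 Cells in G418 medium, seeded 16-24 h, 37C; buffer exchange to DPBS + 1 mM CaCl2, 0.5 mM MgCl2, 0.05% BSA; cpds in DMSO + […] (300 uM stock), 30 min 37C; HTRF cAMP detection.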
# D2 PAM = Beta-Arrestin HTS for Positive Allosteric Modulators of the Human D2 Dopamine Receptor: Potentiators. AID 624464, 2012. D(2) dopamine receptor (Homo sapiens), P14416. DiscoveRx D2 beta-arrestin cells, luminescence, 90 min; 100% = 57 uM dopamine signal. hit rate 0.23% among 360,000. potentiation, % (test concentration not listed); active = potentiation of 50% or more; inconclusive = 30% to 50%; inactive = 30% or less;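 note: compound concentration not given in the record; tested on top of an EC20 dose of dopamine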
# Target sequence (P14416 whole entry, looked up): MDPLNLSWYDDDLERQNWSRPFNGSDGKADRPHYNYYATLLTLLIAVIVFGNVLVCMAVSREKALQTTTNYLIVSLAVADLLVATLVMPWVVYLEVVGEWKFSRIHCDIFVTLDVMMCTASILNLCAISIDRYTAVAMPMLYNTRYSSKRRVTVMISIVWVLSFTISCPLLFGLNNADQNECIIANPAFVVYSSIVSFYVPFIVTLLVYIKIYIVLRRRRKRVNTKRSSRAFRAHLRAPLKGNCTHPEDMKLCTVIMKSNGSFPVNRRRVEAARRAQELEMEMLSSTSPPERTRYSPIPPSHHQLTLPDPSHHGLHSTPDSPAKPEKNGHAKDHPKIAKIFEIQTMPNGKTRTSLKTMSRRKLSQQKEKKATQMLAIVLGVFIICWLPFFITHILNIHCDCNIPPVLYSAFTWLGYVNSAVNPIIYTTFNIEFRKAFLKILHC
#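 PathHunter D2 cells, attached overnight at 37 deg C, received compound in DMSO plus dopamine at EC20 (50 nM final) for 90 min at 37 deg C. Beta-arrestin recruitment was read as luminescence after 1 h with detection reagent at ambient temperature.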
# Sfp inh = qHTS Assay for Inhibitors of Bacillus subtilis Sfp phosphopantetheinyl transferase (PPTase). 4'-phosphopantetheinyl transferase ffp (Bacillus subtilis), Q9F4F7. Biochemical Sfp PPTase activity, qHTS. Potency, µM, inactives show max response, negative = inhibition, most hits filed as inhibitors. hit rate 3.5% among 310,000. AID 1490, 2009; active = well fitted inhibition curve with a large enough effect; inconclusive = small, poorly fitted or top-dose-only effect, or another doubt; inactive = no such curve, though single readings can be large or run the other way;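 note: the enzyme is Sfp with the accession as filed and its product quenches rhodamine fluorescence; potency is the fitted concentration of half-maximal effect; 0% = enzyme reaction without inhibitor and -100% = no enzyme wells; top concentration of the series not given in the record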
#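 Compounds were incubated with enzyme (final 15 nM) for 15 min at room temperature before substrate addition started the reaction. Fluorescence at 525 nm excitation, 598 nm emission was recorded immediately and after 30 minutes.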
# ClpP mod = qHTS Assay for Activators of ClpP; ATP-dependent Clp protease proteolytic subunit (Bacillus subtilis (strain 168)), P80244; purified B. subtilis ClpP, FRET peptide cleavage, 20 min; Potency, µM (highest dose often 57.5 µM), without a hit: top-dose activity change, negative = active; hit rate 1.9% among 340,000; AID 651965, 2013; active = well fitted falling curve with a large enough effect; inconclusive = small, poorly fitted or top-dose-only effect; inactive = no such curve, though single readings can be large or run the other way; note: potency is the fitted concentration of half-maximal effect; the source files actives as falling curves though it sought activators and does not explain the sign; nearly all actives have a fitted effect of over 65% in size; many hits overshoot -100%
# Target sequence (P80244 whole entry, looked up): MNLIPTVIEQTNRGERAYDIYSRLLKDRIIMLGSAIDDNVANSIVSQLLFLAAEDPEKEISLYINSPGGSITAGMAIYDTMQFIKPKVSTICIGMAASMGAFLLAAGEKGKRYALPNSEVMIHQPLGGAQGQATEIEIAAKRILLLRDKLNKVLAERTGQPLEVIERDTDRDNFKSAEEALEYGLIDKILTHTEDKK
#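 Buffer: 100 mM Tris/HCl pH8, 100 mM KCl, 0.05% low protease BSA, 2.5% glycerol, 0.01% Tween-20. ClpP 10 microg/mL final; 20 min RT; delta FRET normalized to ADEP and DMSO controls.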
# TRPV1 PAM = HTS Assay for Compounds that Act as Potentiators of the Vanilloid Receptor 1. potentiation, % at 8.33 µM. TRPV1-expressing cells, Fluo-8 calcium influx, capsaicin EC20 potentiation; host cell line not named in the record; control for the full effect not named in the record. AID 540277, 2011. hit rate 0.02% among 320,000. Transient receptor potential cation channel subfamily V member 1 (Homo sapiens), Q8NER1; active means potentiation above 80%; inconclusive means 30% to 80%; inactive means below 30%; note: 0% is about no effect
#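 Fluo-8 calcium influx in TRPV1-expressing cells, kinetic read (ex 480/em 520 nm). Compound added and read 3 min for agonist activity, followed by capsaicin at EC20 final and 2 min further read for enhancement.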
# gsp ag = qHTS for Agonist of gsp, the Etiologic Mutation Responsible for Fibrous Dysplasia/McCune-Albright Syndrome: qHTS; Potency, µM (doses to about 76.9 µM), for inactives: at the highest dose activation (cAMP increase), most hits filed as activators; hit rate 0.13% among 340,000; gsp mutant cells, cAMP HTRF, 30 min; control for the full effect not named in the record; active = well fitted activation curve with a large enough effect; inconclusive = small, poorly fitted or top-dose-only effect, or another doubt; inactive = no such curve, though single readings can be large or run the other way; cell line not stated here;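 note: phosphodiesterase inhibitor Ro 20-1724 added with compounds to block cAMP breakdown; potency is the fitted concentration of half-maximal effect; nearly all actives have a fitted effect of over 60% in size; about a fifth of the inactives were tested at one dose only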
#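 Cells in DMEM/10% FBS with G418 were pretreated with compounds in DMSO plus […] (300 uM stock) for 30 min at 37C. cAMP was measured by HTRF (cAMP-d2 plus anti-cAMP antibody-K) after 30 min at room temperature.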
# * = called active by the depositor; ? = inconclusive; · = no result given; & = joins results of further samples; [ ] = another dose, or the depositor's remark. An unsorted share of the library (roughly 5.1% active in at least one column).
SMILES,Menin MLL FP FL,gsp antagonist,D2 PAM,Sfp inh,ClpP mod,TRPV1 PAM,gsp ag
Cc1cc(-c2n[nH]c(=S)n2/N=C/C(Br)=C/c2ccccc2)n[nH]1,2.4,-5.2%,-35.2,39.8µM*,-0.5%,-12.8,-2.7%
O=C(NC1CCCCC1)c1ccc(COCC(F)(F)F)o1,-3.5,-11.6%,-8.6,11.3%,-0.9%,-10.9,-42.4%[inhibitor]
COc1ccccc1OCCC(=O)OCC(=O)Nc1cc(S(=O)(=O)N(C)C)ccc1Cl,0.7,-16.9%,-1.8,10.6%,·,13.7,12.4%
O=C(COC(=O)c1ccc2ccccc2n1)Nc1cccc(S(=O)(=O)NC2=NCCCCC2)c1,7.9,-4.5%,-9.0,6.8%,-13.9%,8.5,18.6%
O=C(CN(C1CCCCC1)S(=O)(=O)c1ccccc1)NCc1ccco1,2.5,-2.4%,0.7,4.3%,0.3%,?,-39.5%[inhibitor]
COc1ccc(CN(C)CC(=O)N2CCc3ccccc3C2)cc1,0.3,5.4%,-7.0,2.0%,·,9.4,?
COC(=O)[C@@]1(Cc2ccccc2)[C@H]2C(=O)N(C)C(=O)[C@H]2[C@H]2CN=C(SCc3ccc(C)cc3)N21,·,-15.4%,-4.8,·,0.4%,·,·
O=S(=O)(c1cccc(-c2cn3cc(Cl)ccc3n2)c1)N1CCOCC1,0.2,12.1%,-7.7,11.8%,28.2µM*,-3.4,-34.6%[inhibitor]
O=C(NC1=NCCS1)c1nc(-c2ccccc2)n(-c2ccccc2)n1,1.0,2.8%,-6.0,0.2%,-0.7%,21.0,-17.0%
O=C1C(=O)N(Cc2ccco2)C(c2cccs2)/C1=C(\O)c1cccc([N+](=O)[O-])c1 (stereo not given),8.5,-5.8%,5.3,44.7µM*,-1.4%,9.9,-33.4%[inhibitor]
CCN(CC)C(=O)Cn1c(=O)n(-c2ccccc2)c(=O)n1CC(=O)N(CC)CC,1.3,5.3%,2.5,10.4%,0.2%,-2.1,4.9%
COC(=O)c1c(-c2ccccc2OC)sc2ccccc12,·,-11.3%,-5.1,·,-29.2%,2.0,·
Cc1ccn(C(C)CC(=O)Nc2ccc(-c3ccno3)cc2)n1 (stereo not given),·,1.3%,-40.3,8.0%,-4.6%,23.7,20.3%
O=C(c1ccc(-n2cccn2)cc1)N1CCc2ccccc2C1,1.8,1.2%,-2.3,14.4%,·,-20.2,-0.3%
Cc1ccc(S(=O)(=O)NC(C)(C)CSc2ccccn2)cc1,1.2,3.6%,-3.7,8.5%,-3.1%,-4.3,?
CC(NC(=O)CN(C)CC(=O)Nc1ccc(Cl)c(C(F)(F)F)c1)c1ccccc1 (stereo not given),·,-20.2%,-18.6,·,0.8%,-6.4,-2.9%
COc1ccc(C)cc1NC(=O)CCCN1C(=O)CCC1=O,1.5,7.1%,2.6,4.9%,-2.0%,-13.2,-5.6%
CC1CN(S(=O)(=O)c2csc(C(=O)Nc3ccccc3)c2)CC(C)O1 (stereo not given),·,3.2%,-5.9,14.4%,-0.3%,0.2,13.1%
CC(=O)C1=C(C)Nc2ncnn2C1c1ccccc1OCc1ccccc1 (stereo not given),-1.0,-0.1%,-11.1,-3.2%,-4.0%,-22.4,-13.0%
COc1ccc2c(c1)CCCN2C(N)=O,-0.1,2.8%,-10.2,7.8%,-0.1%,1.5,-7.4%
COc1ccc(CCC(=O)NC2=NCCS2)cc1OC,-0.9,14.7%,-25.8,5.2%,0.5%,16.6,7.8%
CCOC(=O)C1=C(O)C(=O)N(Cc2cccnc2)C1c1ccc(C)cc1 (stereo not given),2.9,-1.2%,-2.3,15.1%,·,-9.2,3.4%[15.4 µM]
Cc1ccc(C)c(N2CC(O)(c3cccs3)[N+]3=C2CCCC3)c1 (stereo not given),3.8,12.7%,2.5,9.5%,·,-4.3,-16.2%[15.4 µM]
CCOc1ccccc1C=NN=Cc1ccccc1O,·,-10.6%,-18.7,·,-2.9%,·,27.7%
COc1ccccc1CNC(=O)C/C(C)=N/NC(=O)Cc1ccc(Cl)cc1,1.8,-11.0%,-7.1,16.4%,·,-0.3,17.4%[15.4 µM]

# Results in TRPV1 PAM, for some of the entries so far:
canonical_smiles	TRPV1 PAM
CCOC(=O)C1=C(O)C(=O)N(Cc2cccnc2)C1c1ccc(C)cc1 (stereo not given)	-9.2
Cc1ccc(C)c(N2CC(O)(c3cccs3)[N+]3=C2CCCC3)c1 (stereo not given)	-4.3

# Next section
SMILES,Menin MLL FP FL,gsp antagonist,D2 PAM,Sfp inh,ClpP mod,TRPV1 PAM,gsp ag
CCCS(=O)(=O)c1ccc(COC(=O)Cc2ccc([N+](=O)[O-])cc2)cc1,-4.2,-3.9%,-0.1,13.5%,2.3%,?,-16.9%
O=C(O)c1ccc(/C=N/Nc2nc3ccccc3[nH]2)cc1,4.9,-8.6%,-4.9,-9.0%,-2.6%,?,20.6%
COc1ccccc1S(=O)(=O)Cc1ccc(C(=O)NCCN2CCCCCC2)o1,1.8,5.0%,-6.9,1.5%,0.7%,5.5,17.7%
Cc1cc(C)cc(N(C(=O)c2csnn2)C(C(=O)NC(C)(C)C)c2ccncc2)c1 (stereo not given),6.7,18.9%,0.0,-15.9%,·,5.3,23.9%
COc1ccc(SCCN2CC[C@@H](C)CCC2=O)cc1,·,5.4%,-2.9,·,0.4%&-2.0%,-28.8,-1.8%
CCCn1c(=O)c2ccccc2n2c(SCC(=O)N3CCc4ccccc4C3)nnc12,-3.0,-40.9%,-15.6,16.3%,13.5%,-0.4,-17.6%
O=C(CCN1C(=O)c2ccccc2C1=O)NNC(=O)c1ccc(Cl)cc1Cl,1.6,9.2%,-1.4,5.3%,-1.9%,20.9,-16.6%
COc1ccc(Cl)cc1NC(=O)NCc1ccco1,0.2,3.1%,-10.5,16.7%,1.4%,-0.8,?
CC1=CCC2C(=O)N(c3cccc(C(=O)NC(C)c4ccccc4)c3)C(=O)C2C1 (stereo not given),1.8,-13.5%,-4.5,5.2%,0.9%,-3.4,22.7%[15.4 µM]
COC(=O)C[C@H]1c2cc(C(F)(F)F)ccc2S(=O)(=O)N1c1ccc(N(C)C)cc1,·,-3.3%,-8.5,·,-2.3%&1.9%,·,-4.5%
COc1ccc(NC(=O)Nc2ccc3c(c2)C(=O)N([C@@H](C)CO)C[C@@H](C)[C@@H](CN(C)S(=O)(=O)c2cccs2)O3)cc1,·,-4.3%,-4.7,·,-1.5%,·,·
Cc1cc(C(=O)N/N=C/c2cn[nH]c2-c2ccccc2)cs1,-0.8,13.5%,-18.6,22.1%,1.1%,2.2,-11.4%
c1ccc(-n2cnnc2SCc2cn3ccsc3n2)cc1,-0.7,11.0%,-12.2,-2.6%,-1.4%,13.8,-3.7%
O=[N+]([O-])c1ccc(/C=[N+](\[O-])[C@@H]2CCCC[C@@H]2/[N+]([O-])=C/c2ccc([N+](=O)[O-])o2)o1,-10.2,-5.3%,2.7,?,-1.3%,4.0,18.0%[15.4 µM]
CCOc1ccccc1NC(=S)N1CCC(NC(=O)C(C)(C)C)CC1,0.1,9.8%,1.7,19.1%,·,-1.5,-33.0%[inhibitor]
CCCN(CCC)S(=O)(=O)c1ccc(C(=O)Nc2nnc(-c3cccc(OC)c3)o2)cc1,7.8,-7.0%,-4.9,-4.0%,1.9%,13.9,27.7%
COc1ccc(Br)cc1CNC(=O)Cc1cccs1,-0.2,-23.1%,-2.8,21.9%,1.5%,5.4,-5.3%[15.4 µM]
CCOC(=O)C1CCN(c2c([N+](=O)[O-])c(C(Cl)Cl)nn2-c2ccccc2)CC1,4.6,0.2%,11.8,-11.6%,-1.0%,1.5,-61.2%[inhibitor]
O=C1NNC(c2ccccc2)=N/C1=C\c1ccccc1Cl,-0.8,-15.5%,4.6,11.5%,-0.9%,-13.9,-18.3%[15.4 µM]
NS(=O)(=O)c1ccc(NC(=O)CN2CCc3ccccc3C2)cc1,-0.1,-14.5%,-16.3,5.1%,1.0%,-5.3,5.9%[15.4 µM]
Cc1ccc(OC(=O)Cn2c(C(F)(F)F)nc3ccccc32)cc1,-2.5,-4.7%,-4.7,7.4%,-6.2%,-2.9,-6.2%
COc1ccc(/C=N/NC(=O)c2cccc(Br)c2)cc1CN1CCOCC1,0.0,-13.3%,-25.1,5.1%,0.7%,7.0,1.2%[15.4 µM]
COCC(=O)Nc1nc(-c2ccc([N+](=O)[O-])cc2)cs1,0.7,7.8%,11.2,-4.9%,0.0%,-10.1,-46.1%[inhibitor]
Nc1c(C(=O)NCc2ccco2)c2nc3ccccc3nc2n1CCc1ccc(F)cc1,9.6,-22.1%,-11.1,25.1µM*,15.8µM*,-2.4,19.2%
CN(C(=O)CSc1nnc(-c2ccncc2)n1Cc1ccccc1)C1CCS(=O)(=O)C1 (stereo not given),2.0,·,·,12.1%,·,3.6,·
COCCCn1cc(C(=O)c2cc(OC)ccc2OCC(=O)Nc2cc(C)on2)cc(C#N)c1=O,1.0,-3.8%,10.2,8.6%,6.5%,2.9,1.5%
Cc1ccc(C(=O)NCC(c2ccco2)N2CCCCC2)s1 (stereo not given),·,9.2%,-30.1,·,-0.6%,-10.5,12.1%

# An excerpt from above in order of the gsp ag value, low to high.
Structure | gsp ag
Cc1ccc(OC(=O)Cn2c(C(F)(F)F)nc3ccccc32)cc1 | -6.2%
Cc1ccc(C(=O)NCC(c2ccco2)N2CCCCC2)s1 (stereo not given) | 12.1%
Cc1cc(C)cc(N(C(=O)c2csnn2)C(C(=O)NC(C)(C)C)c2ccncc2)c1 (stereo not given) | 23.9%
CCCN(CCC)S(=O)(=O)c1ccc(C(=O)Nc2nnc(-c3cccc(OC)c3)o2)cc1 | 27.7%
